N370S GC mod: N370S glucocerebrosidase modulation, Gaucher chaperone candidate. N370S GC spleen homogenate, 4MU-glucoside fluorescence. Potency, µM (titrated, usually from 59.4 µM), inactives show top-dose activity change, negative = inhibition, hits mostly inhibitors. P04062. 0.092% of 330,000 active;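 also: 0% = full enzyme activity and -100% = no enzyme basal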
TDP1 inh: inhibitors of human tyrosyl-DNA phosphodiesterase TDP1; Q9NUW8; recombinant TDP1, AlphaScreen DNA substrate cleavage; Potency, µM (top dose mostly 130 µM), for inactives: at the top dose activity change, negative = inhibition, usual class: inhibitors; 0.28% of 350,000 active; AID 485290; also: nearly all actives have a fitted effect of over 40% in size
Target sequence (Q9NUW8 whole entry, looked up): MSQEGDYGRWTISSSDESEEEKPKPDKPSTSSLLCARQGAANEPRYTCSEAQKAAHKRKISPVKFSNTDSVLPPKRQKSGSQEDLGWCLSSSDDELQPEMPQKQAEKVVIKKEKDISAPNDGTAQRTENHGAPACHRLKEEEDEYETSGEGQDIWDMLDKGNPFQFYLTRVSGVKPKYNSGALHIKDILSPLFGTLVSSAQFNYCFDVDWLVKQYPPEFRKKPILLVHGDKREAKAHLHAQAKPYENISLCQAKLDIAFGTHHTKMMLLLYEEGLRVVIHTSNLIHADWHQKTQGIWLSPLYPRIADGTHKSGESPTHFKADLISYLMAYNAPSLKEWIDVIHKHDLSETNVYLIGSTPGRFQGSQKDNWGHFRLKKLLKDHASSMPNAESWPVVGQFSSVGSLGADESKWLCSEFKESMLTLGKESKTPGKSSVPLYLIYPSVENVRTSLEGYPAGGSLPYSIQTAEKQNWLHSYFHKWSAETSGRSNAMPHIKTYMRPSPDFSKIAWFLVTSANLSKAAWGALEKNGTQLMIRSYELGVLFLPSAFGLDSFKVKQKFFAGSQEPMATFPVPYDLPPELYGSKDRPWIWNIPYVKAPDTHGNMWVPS
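Enzyme-compound mixtures sat 15 min at room temperature, followed by a 5 min reaction with 15 nM final substrate and 10 min with AlphaScreen beads. Recombinant human Tdp1 was used at 1 nM final.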
An asterisk follows results filed as active; ? = inconclusive; / = no result given; [ ] = dose if it differs, or a comment. Calls follow the shape of the dose curve; as a rule, active = well fitted curve in the direction sought with a large enough effect; inconclusive = small, poorly fitted or top-dose-only effect, or another doubt; inactive = no such curve, though single readings can be large; an effect the other way counts as inactive or inconclusive. Unless noted, % is scaled to controls: 0 for no effect and ±100 for the full control effect; potency is read from the fitted curve at half-maximal effect.

SMILES	N370S GC mod	TDP1 inh
O=C(CSc1nc(Nc2ccccc2)nc(N2CCOCC2)n1)Nc1cc(Cl)ccc1O	3.4%	5.2%
O=C(O)CC(C(=O)Nc1ccc(Cl)c(Cl)c1)C1CCCO1 (centres undefined)	0.6%	-4.5%
CC(C)CC1Nc2ncnc(N3CCOCC3)c2N(Cc2ccccc2)C1=O (centres undefined)	/	2.4%
Cc1nn(C)cc1N1C(=O)c2cccc3c(N)ccc(c23)C1=O	-4.6%	3.5%
Cc1ccc(C(=O)N[C@H](C(=O)OCC(=O)Nc2cccc(S(N)(=O)=O)c2)C(C)C)cc1	13.9%	2.8%
CCc1ccccc1NS(=O)(=O)c1ccc(SC)cc1	12.7%	0.0%
CC1(C)CC(NC(=O)C23CCC(C)(C(=O)C2=O)C3(C)C)CC(C)(C)N1 (centres undefined)	-1.9%	2.6%
O=C(NCC1CCCO1)c1ccc(NC(=O)c2cccc([N+](=O)[O-])c2)cc1 (centres undefined)	0.9%	3.8%
CCn1cc(C(=O)N[C@H](C(=O)O)C(C)C)c(=O)c2cc3c(cc21)OCO3	2.5%	/
Cc1ccccc1Oc1nc2c(C)cccn2c(=O)c1/C=C(\C#N)C(=O)Nc1c(C)n(C)n(-c2ccccc2)c1=O	-10.7%	4.1%
Cc1ccc(Cl)cc1-n1ncc2c(NNC(=O)c3ccco3)ncnc21	-0.9%	7.4%
CCOC(=O)C1CCN(CC(O)COCc2ccc3c(c2)OCO3)CC1 (centres undefined)	0.5%	5.4%
O=S(=O)(/N=C(/Nc1ccccc1F)c1ccccc1)c1ccccc1	0.9%[12.8 µM]	-1.5%
CC(C)N(Cc1nc(-c2ccccc2)no1)C(=O)CN1C(=O)c2ccccc2C1=O	12.8%	4.9%
O=C(N/N=C/c1cc(Br)c(O)c(Br)c1)c1cccc(C(F)(F)F)c1	2.6%	5.3%
S=C(NCc1ccccc1)Nc1cccc(Cl)c1	?	-2.6%
O=C(CCCl)N1CCN(c2nc(-c3ccccc3)cs2)CC1	-1.8%	8.1%
CC(=C/c1ccccc1)/C=N/NC(=O)CSc1nc(C)cc(C)n1	-26.7%	5.4%
COc1ccc2nc(NC(=O)CSC(C)C(=O)Nc3cc(C)on3)sc2c1 (centres undefined)	-19.0%	-0.2%
Cc1onc(-c2c(F)cccc2Cl)c1C(=O)N1CCSCC1	-4.7%	4.1%
CNC(=S)N1CCC(NC(=O)C23CC4CC(CC(C4)C2)C3)CC1	5.7%	3.0%
COc1ccc(OC)c(-c2csc(N(C)C(=O)c3ccco3)n2)c1	3.3%	/
Cc1ccccc1CCNC(=O)Cn1nc(C)c2c(C)n(-c3ccccc3)nc2c1=O	3.2%	1.5%
O=C(NCc1cccs1)C1CCCN1C(=O)Nc1ccccc1[N+](=O)[O-] (centres undefined)	0.5%	13.6%
CCCCS(=O)(=O)Nc1ccc2c(c1)ncn2C1CCCCC1	-3.8%	8.7%
O=c1c2ccccc2c(C=Nc2ccccc2O)c(O)n1-c1nccs1	-4.4%	0.0%
Nc1nnc(SCCCC(=O)c2ccc(F)cc2)s1	7.9%	1.1%
CC(C)c1ccc(/C=C/C(=O)N2CCOCC2)cc1	-3.8%	/
COc1cccc(N2CCN(C(=O)c3cccc(N4C(=O)NC5CC4(C)Oc4c(OC)cccc45)c3)CC2)c1 (centres undefined)	-7.0%	3.6%
Cc1csc(NC(=O)CCCC(=O)O)c1-c1nc2ccccc2s1	1.7%	/
Cc1cccc(OCCOC(=O)c2c(-c3ccccc3)noc2C)c1	4.7%	/
COc1ccc(C(=O)N2CCNC(=O)C2CC(=O)Nc2ccc(C)c(C)c2)cc1 (centres undefined)	3.7%	1.9%
CCCCCCC(CC(=O)NCc1cccnc1)CC(=O)NCc1cccnc1	-2.4%	/
CC1CCCCC1NC(=O)Cn1[nH]c(=O)c2ccccc2c1=O (centres undefined)	9.9%	6.2%
Cn1cc(Cl)c(-c2n[nH]c(=S)n2-c2ccccc2)n1	-18.5%	6.3%
CC(C)CC(=O)N/N=C/c1c(N)n(C)c(=O)n(C)c1=O	3.8%	/
O=S(=O)(c1ccc2c(c1)CCCC2)N1CCNCC1	/	0.8%
Cc1ccc(NC(=O)CSc2nnc3ccccn23)cc1	-0.3%	-1.8%
Cc1ccc(NC(=O)CSCC(=O)Nc2ccccc2N2CCCCC2)cc1	-7.4%	-4.7%
COC(=O)CN1C(=O)[C@H]2[C@@H](C3CC3)N3C(=O)CN(Cc4ccc(-c5ccccc5)cc4)C(=O)[C@@]3(Cc3ccccc3)[C@H]2C1=O	5.4%	/
CCOC(=O)c1c(C)c(C(=O)NCCCOC(C)C)c(C)n1C	6.3%	2.1%
COc1ccc(-c2cc(C(F)(F)F)c(C#N)c(SCC(=O)Nc3nc(C)co3)n2)cc1	5.4%	7.3%
Cc1cccc(-n2nc3c(c2NC(=O)c2ccc(Br)o2)CSC3)c1	5.0%	-2.3%
O=C1CC(c2ccco2)CC(O)=C1C=NCCN1CCNCC1 (centres undefined)	5.6%	0.0%
CCOC(=O)CNC(=O)CSc1nc(Cc2ccccc2)nc2ccccc12	13.6%	0.0%
CCC(C)(C)NC(=O)C(c1ccccc1)N(C(=O)c1csnn1)C1CC1 (centres undefined)	-5.5%	0.0%
CSc1ccc(S(=O)(=O)N2c3ccccc3CC2C)cc1 (centres undefined)	15.0%	/
O=C(NCC(c1ccco1)N1CCOCC1)c1ccc(F)cc1 (centres undefined)	-4.8%	/
CC(C)(C)[C@H]1CCC(=O)N([C@H](CN=[N+]=[N-])Cc2ccccc2)CC1	1.2%	/
CC(=O)N1CCc2c(sc(NC(=O)CN3C(=O)CCC3=O)c2C(N)=O)C1	-3.3%	0.0%
Further results
SMILES	N370S GC mod	TDP1 inh
CCN(CC)c1ccc(/C=N/NC(=O)c2ccoc2C)c(O)c1	-7.9%	11.9%
C=CCn1c(CC(=O)Nc2ccc(C)cc2C)nnc1SCC(=O)N1CCOCC1	1.3%	5.6%
Cc1ccc(C)c(S(=O)(=O)NCc2ccc(C(=O)N3CCCCC3C)cc2)c1 (centres undefined)	-7.7%	3.6%
COc1cccc(CC2(CO)CCCN(Cc3nc(-c4cccs4)oc3C)C2)c1 (centres undefined)	-10.3%	3.0%
COc1ccccc1C(=O)Nc1ccc(NC(=O)c2ccco2)cn1	-5.5%	/
O=C(CN1C(=O)c2cccnc2Oc2ccc(Cl)cc21)Nc1ccccc1F	-16.6%	/
S=c1nc(-c2ccccc2)n(-c2ccccc2)[nH]1	-4.3%	/
Cc1cccc(NC(=O)CSc2nnc(C)n2Cc2ccccc2)c1	4.0%	1.9%
N#CC1C=Cc2ccccc2N1C(=O)c1ccccc1 (centres undefined)	3.4%	1.3%
CCn1c(SCC(=O)Nc2ccc3c(c2)c2ccccc2n3CC)nnc1-c1cnccn1	3.6%	8.2%
N=C(N)c1ccc(Cl)cc1	1.8%	3.6%
O=[N+]([O-])c1cccc(-c2csc(N/N=C/c3cccc(O)c3)n2)c1	-15.3%	6.1%
Cc1ccc(C)c(C(=O)COC(=O)CCN2C(=O)C3C4CCC(C4)C3C2=O)c1 (centres undefined)	0.8%	1.9%
CCn1c(SCC(=O)Nc2ccccc2)nc2c1c(=O)n(C)c(=O)n2C	3.8%	2.6%
COc1ccccc1N1CCN(c2ncnc3sc(C(=O)NCC4CCCO4)c(C)c23)CC1 (centres undefined)	-0.2%	1.8%
COC(=O)Cn1cnc2sc3c(c2c1=O)CCCC3	-4.9%	-2.5%
Cc1nnc(NC(=O)CCN2C(=O)/C(=C\c3ccccc3)SC2=S)s1	-2.9%	2.6%
CCCCn1c(CCn2nc(C)c(Br)c2C)n[nH]c1=S	-4.3%	-3.0%
CC(=O)Nc1cccc(NC(=O)CSc2nnc3ccccn23)c1	/	0.0%
CCN(CC)S(=O)(=O)c1cccc(-c2n[nH]c(=S)n2/N=C/c2ccc(OC(F)F)cc2)c1	9.9%	2.7%
CCOc1cc(NC(=S)N2CCC(C(N)=O)CC2)c(C(=O)OC)cc1OCC	-0.9%	3.7%
COCCNc1nc(-c2cc(-c3ccccc3)on2)cc(C(C)C)n1	0.0%	0.0%
CCc1nc(SCC(=O)O)c2c3c(sc2n1)COC(C)(C)C3	-6.0%	/
O=C(Nc1ccc2c(c1)OCCO2)c1ccc(Cl)c(S(=O)(=O)N2CCOCC2)c1	-6.5%	2.2%
Cc1cccc(NC(=O)CSCC(=O)Nc2cccc3ncccc23)c1	8.1%	0.7%
CCOC(=O)Nc1nnc(-c2cccc(OC)c2)s1	3.5%	6.6%
Cc1ccc(NC(=O)Nc2ccnc(-c3cccnc3)n2)cc1	4.0%	-3.1%
Cc1cc(N)ccc1NC(=O)CN1CCOCC1	3.3%	/
Cn1c(N)c(C(=O)COC(=O)C2CC(O)CN2S(=O)(=O)c2ccc(Cl)cc2)c(=O)n(C)c1=O (centres undefined)	0.2%	-0.6%
O=C1NC(=O)/C(=C/c2ccccc2OCc2ccccc2)S1	20.7%	-1.2%
O=C(Nc1ccc(OC(F)(F)F)cc1)c1cc2c(=O)n3ccccc3nc2s1	/	4.5%
COc1ccc(-n2cnc3sc(-c4ccccc4)cc3c2=O)cc1	11.5%	-1.0%
O=C(c1ccccc1-c1nc(-c2ccccc2Cl)no1)N1CCOCC1	-10.4%	5.1%
CCOc1c(C)cnc2c1c(=O)n(Cc1c(F)cccc1Cl)c(=O)n2C	-4.6%	1.4%
CCC(C)(C)n1nnnc1C(c1cc2ccc(OC)cc2[nH]c1=O)N1CCCCC1 (centres undefined)	-5.1%	6.6%
O=C(COc1ccccc1)Nc1ncccn1	-0.4%	-2.0%
COc1cccc(C2=NN(C(C)=O)C(c3cccs3)C2)c1 (centres undefined)	2.9%	/
Cc1cccc(NC(=O)c2c([N+](=O)[O-])cnn2C)c1	-2.4%	/
CCC(C)N1CCN(C(=O)C2CCN(S(=O)(=O)c3c(C)noc3/C=C/c3ccco3)CC2)CC1 (centres undefined)	-22.1%	6.0%
CC(C)n1c(/C=C/[C@@H](O)C[C@@H](O)CC(=O)O)c(-c2ccc(F)cc2)c2ccccc21	-2.0%	/
O=C(OCC(=O)C12CC3CC(CC(C3)C1)C2)c1cccnc1	10.9%	3.5%
COC(=O)c1ccccc1NC(=S)NC(=O)c1ccc(C)cc1	17.7%	-1.8%
CC(=O)NC(=S)Nc1ccccc1N1CCCCC1	-4.2%	3.5%
Cc1cc(OCC(=O)N2CCN(c3ccccn3)CC2)cc(C)c1Br	-2.5%	2.6%[56.1 µM]
CC1CCN(CCOc2cc(Cl)ccc2Cl)CC1	1.4%	1.0%
COc1cc(Cl)ccc1OCc1cc(C(=O)NC(C)Cc2cccnc2)no1 (centres undefined)	-0.5%	1.5%
CCNC(=O)COC(=O)c1cc(C)nc2ccccc12	7.6%	-2.5%
Cc1cccnc1NC(=O)C1CCN(S(=O)(=O)c2ccc3ccccc3c2)CC1	-0.4%	-10.8%
Cc1ccc(-c2nnn3c2nc(NC(C)C)c2ccccc23)cc1	23.3%	/
O=C(/C=C/c1ccc(S(=O)(=O)N2CCOCC2)cc1)Nc1ccc(F)c(F)c1F	/	-0.5%
Going on with the list:
SMILES	N370S GC mod	TDP1 inh
Cc1nc(C)c(-c2csc(Nc3ccc(S(N)(=O)=O)cc3)n2)s1	-4.3%	2.3%
CN1C(=O)[C@H]2[C@@H](C3CC3)N3C(=O)CN(Cc4ccccc4)C(=O)[C@@]3(C)[C@H]2C1=O	-3.8%	/
CCCCN(C(=O)CSc1nnnn1-c1ccccc1OC)C1CCS(=O)(=O)C1 (centres undefined)	-5.5%	/
Cc1nc(CN2CCN(Cc3nc(C(c4ccccc4)c4ccccc4)no3)CC2)cs1	3.3%	2.7%
CC(C)(C)NC(=O)c1ccc2c3c(cccc13)CC2	8.3%	3.7%
CC(C)(C)C(=O)NC(=S)Nc1cc(C(=O)O)ccc1Cl	4.2%	-2.2%
O=C(c1cncc(Br)c1)N1CCN(c2ccc(N3CCOCC3)nn2)CC1	4.5%	2.0%
Cc1ccc(N2C(=O)N(CC(=O)N3CCCc4ccccc43)C(=O)C2C)cc1 (centres undefined)	-28.5%	3.8%
CCCCC(CC)C(=O)Nc1cc(=O)[nH]c2nc3ccccc3n12 (centres undefined)	4.7%	/
COc1ccccc1-c1nnc(NC(=O)C(C)Sc2nncn2C)s1 (centres undefined)	3.3%	4.6%
OC(c1cccs1)c1nccc2ccccc12 (centres undefined)	-7.9%	7.1%
Cc1nc2c(-c3ccccc3)cnn2c(N)c1-c1ccccc1	?	/
Cc1ccsc1C(=O)N1CCCC(CCC(=O)N2CCN(c3ccccn3)CC2)C1 (centres undefined)	16.8%	0.0%

Ordered by value in TDP1 inh (highest first): some entries from above.
SMILES | N370S GC mod | TDP1 inh
OC(c1cccs1)c1nccc2ccccc12 (centres undefined) | -7.9% | 7.1%
COc1ccccc1-c1nnc(NC(=O)C(C)Sc2nncn2C)s1 (centres undefined) | 3.3% | 4.6%
Cc1ccc(N2C(=O)N(CC(=O)N3CCCc4ccccc43)C(=O)C2C)cc1 (centres undefined) | -28.5% | 3.8%
CC(C)(C)NC(=O)c1ccc2c3c(cccc13)CC2 | 8.3% | 3.7%
Cc1nc(C)c(-c2csc(Nc3ccc(S(N)(=O)=O)cc3)n2)s1 | -4.3% | 2.3%
Cc1ccsc1C(=O)N1CCCC(CCC(=O)N2CCN(c3ccccn3)CC2)C1 (centres undefined) | 16.8% | 0.0%
CC(C)(C)C(=O)NC(=S)Nc1cc(C(=O)O)ccc1Cl | 4.2% | -2.2%

Screening results from PubChem BioAssay.

Only part of the results is shown, and most or all hits are left out here.
